RGS16-Gao: modulates binding between human RGS16 and Galphao | bead-based flow cytometry RGS16-Galphao binding, fluorescence; actives lie on both sides | binding response (% of control), % at 10 µM | 220,000 compounds, 0.38% hits | AID 1441;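 active = below 25% or above 175%, edge rows of some plates excepted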;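 also: Galphao activated by GDP with aluminum fluoride before binding; 100% = wells without compound and 0% = beads without RGS; some results beyond the cut were filed as inactive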
GALR2 agonist: activates the human galanin receptor 2. GALR2-expressing cells, agonist activation read-out. AID 803. 140,000 compounds, 0.48% hits. activation, %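 (tested at 5 µM)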. O43603;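 active = above mean plus 3 SD of all compounds, about 5% in these data, not always enough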;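 also: 0% = vehicle buffer wells and 100% = reference agonist at full effect; tested in CHO reporter cells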
PKD1 inh: PKD1 (human) kinase inhibition; PKD1 kinase fluorescence polarization assay; inhibition, %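 (about 10 µM by stock and volumes)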; 200,000 compounds, 0.056% hits;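 active = inhibition of 50% or more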;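 also: controls were vehicle for no effect and a reference inhibitor for full effect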
Target sequence (Q15139 whole entry, looked up): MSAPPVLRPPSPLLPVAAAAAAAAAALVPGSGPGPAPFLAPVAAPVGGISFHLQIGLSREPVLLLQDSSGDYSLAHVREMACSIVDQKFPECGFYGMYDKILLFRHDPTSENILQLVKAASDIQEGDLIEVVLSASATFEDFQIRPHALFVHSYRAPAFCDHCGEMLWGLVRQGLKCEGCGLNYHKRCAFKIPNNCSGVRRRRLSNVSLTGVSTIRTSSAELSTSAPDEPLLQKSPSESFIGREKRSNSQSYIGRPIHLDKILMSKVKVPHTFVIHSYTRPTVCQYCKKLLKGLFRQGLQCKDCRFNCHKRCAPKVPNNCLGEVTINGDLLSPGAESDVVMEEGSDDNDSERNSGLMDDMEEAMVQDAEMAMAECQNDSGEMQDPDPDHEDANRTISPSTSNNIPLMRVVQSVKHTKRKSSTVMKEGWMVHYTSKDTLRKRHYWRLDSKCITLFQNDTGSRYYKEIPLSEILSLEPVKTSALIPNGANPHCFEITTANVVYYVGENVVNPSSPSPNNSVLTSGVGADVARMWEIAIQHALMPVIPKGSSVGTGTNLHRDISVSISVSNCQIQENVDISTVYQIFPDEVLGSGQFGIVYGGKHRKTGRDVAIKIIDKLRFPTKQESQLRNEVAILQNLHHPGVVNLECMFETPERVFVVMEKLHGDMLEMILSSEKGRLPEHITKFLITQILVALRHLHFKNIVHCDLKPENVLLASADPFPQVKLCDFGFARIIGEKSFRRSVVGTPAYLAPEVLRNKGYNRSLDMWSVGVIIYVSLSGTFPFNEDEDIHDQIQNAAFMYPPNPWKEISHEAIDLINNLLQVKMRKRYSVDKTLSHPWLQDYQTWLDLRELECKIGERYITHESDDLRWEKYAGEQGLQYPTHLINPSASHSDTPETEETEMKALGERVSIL
HSV replic up: increases HSV replication in cells; HSV replication augmentation in cells, fold increase; maximum fold increase; 220,000 compounds, 0.005% hits; AID 1956;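 active = peak rise of 1.5-fold or more in the series; tested in PC3 cells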;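 also: first round at 10 µM; read as green reporter fluorescence; hits show the peak of a series up to 25 µM; 1 = signal of infected wells without compound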
Insulin prom inh: TRM-6 insulin promoter activity inhibition; AID 1273; TRM-6 cells (human fetal islet line), insulin promoter-eGFP reporter, imaging; reporter expression induced with tamoxifen; 130,000 compounds, 0.9% hits; inhibition, % at 2 µM;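 active = inhibition above the mean plus 3 SD, with well images judged a real hit on visual review, cut at about 60% in these data, passing the limit was not always enough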
Insulin prom inh cell count: recorded beside Insulin prom inh, whose call it bears; normalized cell count, %; measured here: cell count, toxicity; reference of the scale not given here;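 cells exposed to compound for 48 h; stained nuclei by imaging scaled within each plate; lower means fewer cells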
HSV replic up primary fold: further read-out of HSV replic up, marked with its call; fold increase; compound at 10 µM; measured here: primary screen fold increase 10 uM; tested in PC3 cells;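 GFP signal in the first replicate; 1 = infected wells without compound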
* marks the source's active call; other numbers are inactive results; i = inactive; / = not tested or not shown.

SMILES	RGS16-Gao	GALR2 agonist	PKD1 inh	HSV replic up	HSV replic up primary fold	Insulin prom inh	Insulin prom inh cell count
Cc1[nH]nc2c1C1(C(=O)N(Cc3ccc(Cl)cc3)c3ccccc31)C(C#N)=C(N)O2 (stereo unspecified)	83	-0.2	-3	i	0.71	21	93
COC(=O)c1ccccc1NC(=S)N(C)C	102	/	/	i	1	/	/
O=C(NC1CCCCC1)N1CCCC(c2nc(-c3cccs3)no2)C1 (stereo unspecified)	105	-0.7	-3	i	1	-41	79
COc1cc(/C=C/C(=O)N2C(=O)c3cccc(N)c3C2=O)cc(OC)c1OC	131	-1.6	-10	i	0.93	/	/
COCCNCCOCCOc1ccc(Cl)c(C)c1	99	-2.9	1	i	0.91	-26	47
O=C(NCc1ccccn1)[C@H]1C[C@@H]1[C@H](NP(=O)(c1ccccc1)c1ccccc1)c1ccccc1	93	-2.6	4	i	0.96	-14	75
COc1ccc(-c2csc(Nc3ccc(C)cn3)n2)cc1OC	109	/	7	i	0.93	/	/
CCOc1ccc2oc(C(=O)O)c(C)c2c1	101	/	/	i	1.1	/	/
Cc1c(Cl)cnc(NC(=O)COC(=O)c2ccc3c(c2)OCO3)c1Cl	116	-2.6	-2	i	0.87	22	89
c1ccc(Nc2cccc(Nc3ccccc3)c2)cc1	150	-0.6	-14	i	0.83	34	77
COC(=O)c1sc(-c2ccccc2)cc1NC(C)=O	111	/	-6	i	0.78	33	105
O=C(Cn1c(=O)oc2cccnc21)Nc1ccc(C(F)(F)F)cc1	99	/	/	i	0.93	/	/
CCOc1ccc(OC(=O)c2cccnc2)cc1	98	0.1	10	i	0.84	/	/
CCOC(=O)C1CCCN(Cc2nc(N)nc(Nc3ccc(C)cc3)n2)C1 (stereo unspecified)	104	-4.6	0	i	0.78	-55	188
CCc1ccc(C2C3=C(CCCC3=O)OC3=C2C(=O)CCC3)cc1	107	-0.9	-6	i	0.94	29	174
COc1ccc2c(c1)c1nnc(SCC(=O)N3C(C)CCCC3C)nc1n2C (stereo unspecified)	91	0.5	3	i	0.87	/	/
Cc1ccc(C(=O)C2=C(O)C(=O)N(c3ncccn3)C2c2ccc(Br)cc2)o1 (stereo unspecified)	98	/	/	i	1.1	/	/
Cc1ccc(-n2c(Cc3cccn3C)nnc2SCC(=O)NCc2ccc3c(c2)OCO3)cc1	88	-1.8	-6	i	0.86	15	148
COc1cccc(C2CC(c3ccc(F)cc3)Nc3nc(N)nn32)c1 (stereo unspecified)	57	-1.3	13	i	0.93	/	/
C=CCn1cccc(C(=O)Nc2cc(OC)ccc2OC)c1=O	102	/	1	i	0.99	-19	137
COc1ccc(C2C(C(=O)N3CCOCC3)c3ccccc3C(=O)N2c2ccc(OC)cc2)cc1 (stereo unspecified)	107	1.0	-3	i	1	/	/
Cc1cc(NC(=O)CCS(=O)(=O)c2nc(-c3ccccc3)cc(C(F)(F)F)n2)no1	37	/	/	i	0.57	/	/
CCSc1nc(N2CCOCC2)c2ccccc2n1	101	-3.0	7	/	/	45	77
O=C(Nc1ccc(N2CCOCC2)cc1)c1ccc2nc(-c3ccco3)c(-c3ccco3)nc2c1	88	-0.2	-2	i	0.71	-8	108
COC(=O)c1ccc(NC(=O)CN(C)Cc2cccc(F)c2)cc1	99	/	-9	i	1.1	/	/
CCc1cccc(OCCn2ccnc2)c1	89	-1.6	2	i	1	14	106
Cc1ccc(Nc2ccc(C(N)=O)cc2[N+](=O)[O-])cc1	73	-3.5	-6	i	0.93	12	159
O=C(CN1C(=O)c2ccccc2S1(=O)=O)NC1CCCCCC1	100	-2.1	-6	i	0.8	-70	143
Nc1nc(SCC(=O)NCc2ccc(F)cc2)[nH]c(=O)c1NC(=O)c1ccc(Cl)cc1	103	-1.0	1	i	0.91	-40	148
CC(C)CNS(=O)(=O)c1ccc(CCC(=O)N2CCOCC2)cc1	103	-0.5	-2	i	1	-324	82
CCC(C)(C(=O)NC1CCCCC1)N(C)C(=O)c1ccccn1 (stereo unspecified)	90	-0.7	5	i	1.1	15	133
Cn1ncc(C#N)c1NC(=O)c1nn2cccnc2c1Cl	92	-2.3	2	i	0.95	33	111
C=CCc1ccc(OCC(O)CN2CCCCC2C)c(OC)c1 (stereo unspecified)	95	-1.3	-6	i	0.83	-6	64
Clc1ccc(CSc2snnc2-c2ccccc2)cc1	94	-2.1	-4	i	1.2	11	122
CN(C)/C=C\C(=C/C(=O)C(F)(F)F)Nc1ccccc1Oc1ccccc1	92	/	-3	i	0.88	/	/
Cn1cc([N+](=O)[O-])c(C(=O)Nc2ccc(C(=O)N3CCCCC3)cc2)n1	35	-0.5	-1	i	0.69	69	45
CCOc1cc(C2NC(=O)NC(O)(C(F)(F)F)C2C(=O)c2ccccc2)ccc1OC (stereo unspecified)	162	-0.8	-14	i	1.1	50	107
COc1ccc(N2C(=O)/C(=C/c3ccc([N+](=O)[O-])cc3)N=C2C)cc1	107	/	1	i	0.88	-40	98
CCOC(=O)C1=C(c2ccccc2)ON(C)C1c1ccccc1 (stereo unspecified)	100	-0.9	1	i	1.1	-52	84
CCn1cc(C(=O)NCCCN(C)C)c(=O)c2cc(F)c(N3CCN(C)CC3)cc21	104	-2.6	-2	i	0.99	-33	52
O=C(Nc1cccc(OCC(=O)N2CCOCC2)c1)c1cccc([N+](=O)[O-])c1	99	/	-2	i	0.99	/	/
O=S1(=O)N=C(N/N=C/c2ccc(Br)o2)c2ccccc21	100	/	9	i	0.94	/	/
CCOc1ccc(N2C(=O)/C(=C\c3ccc(OC)c(O)c3)S(=O)(=O)C2c2cccc([N+](=O)[O-])c2)cc1 (stereo unspecified)	108	/	8	i	0.88	17	154
C=CCn1c(COc2ccccc2F)nnc1SCCN1C(=O)c2ccccc2C1=O	98	-0.6	-13	i	1.1	/	/
Cc1ccc(/C=N/n2cc(-c3ccccc3)[nH]c2=S)s1	90	/	-4	i	1	0	105
CC(C)CNC(=S)N(Cc1ccco1)Cc1cc2cc3c(cc2[nH]c1=O)OCCO3	83	-0.1	-7	i	1.1	66	56
CC12CCC(C/C1=N/O)C2(C)C (stereo unspecified)	105	/	7	i	0.97	/	/
CCOc1ccc(NC(=O)CCC(=O)n2nc(C)cc2C)cc1	102	0.0	-2	i	0.79	-6	86
COCCCNC(=O)C(C#N)c1nc2ccccc2nc1N1CCCC1 (stereo unspecified)	99	-0.8	2	i	0.89	22	90
COc1ccc(-c2cccc(C3CC=CC4C3C(=O)N(Cc3ccccc3)C4c3cc(C)ccc3F)c2)cc1 (stereo unspecified)	98	/	/	i	0.81	/	/
O=C(CSc1nc(-c2ccco2)cc(C(F)(F)F)n1)NN1CCOCC1	106	/	6	i	1	/	/
COC(=O)NCc1cccc(CNC(=O)OC)c1	111	-0.5	-7	i	0.87	-9	178
COc1ccc(-n2c(=O)/c(=C\c3cccs3)s/c2=C(/C#N)C(=O)NCCN2CCOCC2)cc1	97	/	5	i	0.78	/	/
Cc1ccc2sc(NNC(=O)C3COc4ccccc4O3)nc2c1C (stereo unspecified)	/	-1.0	7	/	/	-76	87
COC(=O)c1cccc(NC(=O)Cc2ccccc2[N+](=O)[O-])c1C	109	0.2	5	i	0.97	/	/
Cn1c(NC(=O)Cc2cccs2)cc(=O)n(C)c1=O	101	-3.4	0	i	0.97	/	/
CCOC(=O)c1c(C)oc2cc(Br)c(OCC(N)=O)cc12	121	-3.2	1	i	0.85	-114	103
COc1ccccc1/C=C/C(=O)NCC(=O)N/N=C/c1ccccc1	104	/	2	i	1	/	/
O=C(Nc1cnn(Cc2ccc(Cl)cc2)c1)c1cnccn1	105	-1.7	1	i	0.69	50	136
CC1CCCCN1CCNC(=O)CC1Oc2ccccc2NC1=O (stereo unspecified)	106	-1.4	-4	i	1	/	/
Other entries:
SMILES	RGS16-Gao	GALR2 agonist	PKD1 inh	HSV replic up	HSV replic up primary fold	Insulin prom inh	Insulin prom inh cell count
CCOC(=O)c1ccc(NC(=O)c2cc(OC)c(OC)c(OC)c2Br)cc1	78	-0.4	-5	i	0.9	-11	56
O=C(c1ccncc1)N1CCN(c2cccc(C(F)(F)F)c2)CC1	97	-1.8	-7	i	0.98	9	54
O=C(OCCOCCN=C1NS(=O)(=O)c2ccccc21)C1CC(=O)N(c2ccccc2)C1 (stereo unspecified)	102	-2.0	1	i	1.1	-71	96
CC(=O)Nc1ccc(S(=O)(=O)NNC(=O)CCC(=O)Nc2cc(C)ccc2C)cc1	102	0.0	-10	i	1.1	0	139
COc1ccc(S(=O)(=O)Nc2cc(C)c(O)c(S(=O)(=O)c3ccccc3)c2)cc1	106	-0.9	-16	i	0.89	-9	106
CC(=O)c1cnc2cc(-c3ccccc3)nn2c1C	94	1.6	6	i	1.1	43	88
Cc1ccc2nc(NC(=O)CSCC(=O)OCC(=O)c3ccc(Br)cc3)sc2c1	97	-1.1	9	/	/	-7	97
CC(C)C1Cc2c(C#N)c(N)sc(=S)c2CO1 (stereo unspecified)	90	-1.9	-3	i	1.1	-43	52
Cc1cc(=O)oc2cc(Oc3ccc([N+](=O)[O-])cc3[N+](=O)[O-])ccc12	25*	0.9	-4	i	0.7	-3	89
O=C1N=C2N(CCN3CCCCC3)c3ccccc3N2/C1=C\c1ccc([N+](=O)[O-])o1	101	/	-8	i	0.63	-388	20
O=C(Cc1ccccc1)Nc1cccc(N2C(=O)C=CC2=O)c1	136	2.4	-1	/	/	i	5
COC(=O)c1ccccc1NC(=S)NC(=O)C1CC1	98	0.7	-8	i	0.87	-35	188

As entered above:
O=C(c1ccncc1)N1CCN(c2cccc(C(F)(F)F)c2)CC1 in HSV replic up primary fold reads 0.98
CCOC(=O)c1ccc(NC(=O)c2cc(OC)c(OC)c(OC)c2Br)cc1 in Insulin prom inh reads -11
O=C1N=C2N(CCN3CCCCC3)c3ccccc3N2/C1=C\c1ccc([N+](=O)[O-])o1 in HSV replic up primary fold reads 0.63
Cc1ccc2nc(NC(=O)CSCC(=O)OCC(=O)c3ccc(Br)cc3)sc2c1 in PKD1 inh reads 9

The listing picks up with the six entries that preceded the break.
SMILES	RGS16-Gao	GALR2 agonist	PKD1 inh	HSV replic up	HSV replic up primary fold	Insulin prom inh	Insulin prom inh cell count
Cc1ccc2nc(NC(=O)CSCC(=O)OCC(=O)c3ccc(Br)cc3)sc2c1	97	-1.1	9	/	/	-7	97
CC(C)C1Cc2c(C#N)c(N)sc(=S)c2CO1 (stereo unspecified)	90	-1.9	-3	i	1.1	-43	52
Cc1cc(=O)oc2cc(Oc3ccc([N+](=O)[O-])cc3[N+](=O)[O-])ccc12	25*	0.9	-4	i	0.7	-3	89
O=C1N=C2N(CCN3CCCCC3)c3ccccc3N2/C1=C\c1ccc([N+](=O)[O-])o1	101	/	-8	i	0.63	-388	20
O=C(Cc1ccccc1)Nc1cccc(N2C(=O)C=CC2=O)c1	136	2.4	-1	/	/	i	5
COC(=O)c1ccccc1NC(=S)NC(=O)C1CC1	98	0.7	-8	i	0.87	-35	188
COc1ccc(S(=O)(=O)Nc2nc3ccccc3nc2NCC2CCCO2)cc1 (stereo unspecified)	89	/	/	i	0.86	/	/
CCCCCC/C(=N\NS(C)(=O)=O)c1ccccc1	106	-0.3	2	i	0.96	0	117
CCOc1ccc(/C=C2/Sc3ccc(C(=O)N4CCN(C(=O)c5ccco5)CC4)cc3N(C)C2=O)cc1OC	94	/	5	i	0.67	/	/
COc1ccc(C(=O)NCc2nnc(SCC(=O)Nc3cc(C)cc(C)c3)o2)cc1OC	84	-2.6	-1	i	0.99	54	119
NC(=O)c1c(NC(=O)Cn2cc([N+](=O)[O-])cn2)sc2c1CCCC2	78	/	-4	i	0.77	/	/
O=C(NCc1ccccn1)c1ccc2ccccc2n1	72	-0.9	-12	i	0.88	/	/
O=S1(=O)c2cccc3cccc(c23)N1Cc1nnc(-c2ccccc2Br)o1	152	-0.3	-8	i	1	/	/
Cc1oc(-c2cccs2)nc1CN1CCN(CC(C)C)C(CCO)C1 (stereo unspecified)	104	/	-2	i	0.9	/	/
Cc1noc(C(=O)Nc2c(C)n(C)n(-c3ccccc3)c2=O)c1Cl	98	-1.6	-3	i	1.1	/	/
CCN(CC)CCCN=Cc1c(O)n(Cc2ccccc2)c(=O)c2ccccc12	134	-0.3	-6	i	0.85	54	107
Cc1ccccc1C1c2[nH]c3ccccc3c2CCN1CCCn1cccn1 (stereo unspecified)	102	/	-2	i	1	/	/

Screening data as filed in PubChem BioAssay.
